From PubChem
H5N1 antiviral: MDCK cell protection from H5N1 avian flu. cytopathic effect, luminescence, 72 h; hits give high values; no value below 0 was filed and about half of the inactive calls have no number; reference of the scale not given here. inhibition, % at 50 µM. 96,000 tested, 0.07% active; in the data active = inhibition above about 25%
* marks the source's active call; other numbers are inactive results; i = inactive.

SMILES | H5N1 antiviral
COc1ccccc1-c1nnc(SCC(=O)Nc2c(Cl)cccc2Cl)o1 | 1.2
COc1cccc(C(c2nnnn2CCc2ccccc2)N2CCN(c3ccccc3)CC2)c1OC (stereo unspecified) | 0.5
C=C(C)CNC(=S)NNC(=O)c1ccco1 | i
Cc1cccc(OCC(=O)Nc2ccc3c(c2)OCO3)c1C | 0.1
CC(=C/c1ccco1)/C=N/N1CCN(c2ccccc2)CC1 | i
CCN(CC)CCNC(=O)C1c2cc(OC)c(OC)cc2C(=O)N2CCc3ccccc3C12 (stereo unspecified) | 1.1
COc1cc(OC)cc(-n2nc(C(=O)N3CCC4(CC3)OCCO4)c3ccccc3c2=O)c1 | i
COc1ccc2cc3cc(C(=O)Nc4ccccc4N4CCN(C)CC4)oc3nc2c1 | 1.4
COc1cc(C(C#N)N2CCOCC2)ccc1O (stereo unspecified) | i
CCOC(=O)c1cc(NC(=O)NCc2ccco2)c(C)nc1C | 0.4
CC1CCN(C(=O)CN(c2ccc(Oc3ccccc3)cc2)S(C)(=O)=O)CC1 | 0.6
CCOC(=O)C1CN(S(=O)(=O)c2ccc(F)cc2)C1 | i
CCCCc1nc2sc3c(c2c(=O)[nH]1)CCC3 | 0.7
CCn1cnc2cc(NCc3ccc(C)cc3)ccc21 | i
C=CCc1ccc(OCC(O)CN2CCCCC2)c(OC)c1 (stereo unspecified) | i
Clc1ccc(-c2nnc(-c3ccco3)o2)cc1 | i
Cc1cccc(NC(=O)CS(=O)(=O)c2c[nH]c3ccccc23)c1C | 0.3
O=C(Nc1ccc(Sc2ccc(Br)cc2)cc1)c1ccco1 | i
O=C(CCCSc1nnc(-c2cccs2)n1CC1CCCO1)c1ccccc1 (stereo unspecified) | 2.5
O=[N+]([O-])c1cccc(C(=Nc2ccc(Cl)cc2)NO)c1 | 0.2
O=C(Oc1ccccc1)c1cc2ccccc2o1 | 0.5
O=C(Nc1ccc(Cl)cc1)C1CCCN(S(=O)(=O)c2cnc[nH]2)C1 (stereo unspecified) | i
CC(C)C(=O)NC(Nc1ccccc1F)C(Cl)(Cl)Cl (stereo unspecified) | 0.9
COc1ccc(NC(=O)CN2C(=O)C(C)Oc3ccccc32)c(OC)c1 (stereo unspecified) | i
CCOC(=O)N1CCN(CCC(=O)Nc2ccc(C)c(Br)c2)CC1 | i

An excerpt of these results, as labelled records.
O=C(Nc1ccc(Sc2ccc(Br)cc2)cc1)c1ccco1
  H5N1 antiviral: i
O=C(CCCSc1nnc(-c2cccs2)n1CC1CCCO1)c1ccccc1 (stereo unspecified)
  H5N1 antiviral: 2.5
O=[N+]([O-])c1cccc(C(=Nc2ccc(Cl)cc2)NO)c1
  H5N1 antiviral: 0.2
O=C(Oc1ccccc1)c1cc2ccccc2o1
  H5N1 antiviral: 0.5

Another view of some results above:
molecule	H5N1 antiviral
COc1ccc(NC(=O)CN2C(=O)C(C)Oc3ccccc32)c(OC)c1 (stereo unspecified)	i
CCOC(=O)N1CCN(CCC(=O)Nc2ccc(C)c(Br)c2)CC1	i

New compounds follow
SMILES | H5N1 antiviral
COCCCN1C(=O)C(=O)/C(=C(/O)c2ccc(C)cc2)C1c1ccccc1 (stereo unspecified) | 0.2
CCn1c(CSc2ncccn2)nnc1SCC(=O)N1c2ccccc2CC1C (stereo unspecified) | 1.3
COC(=O)C1CCN(C(=O)Cc2ccc(Br)cc2)CC1 | 0.7
O=[N+]([O-])c1cccc(/C=N/Nc2nccnc2Cl)c1 | i
Cc1cc(C)n(C(=O)c2ccc(NC(=O)C3COc4ccccc4O3)cc2)n1 (stereo unspecified) | 2.9
O=C(CCC(=O)c1ccc(F)cc1)OC1CCOC1=O (stereo unspecified) | i
COc1ccccc1NC(=S)NNC(=O)c1ccc(O)cc1 | i
Cc1ccc(C)c(N(CC(=O)NN=C2CCCCCCC2)S(C)(=O)=O)c1 | 0.8
CCN=C1SC(CC(=O)Nc2ccc(C(F)(F)F)cc2)C(=O)N1CC (stereo unspecified) | i
CC(C)(C)CC(=O)Nc1cccc2c1CCCC2 | 0.4
O=C(CCn1c(=O)[nH]c2ccccc2c1=O)N1CCN(c2ccc(Cl)cc2)CC1 | 0.5
COC(=O)NCc1ccc(CNC(=O)OC)cc1 | i
CCCOc1ccc(CN(CCO)CCO)cc1C(=O)OC | i
CCC(Sc1nc2c(c(=O)[nH]1)CCC2)C(=O)Nc1cccc(OC)c1 (stereo unspecified) | i
CCSc1nc(O)cc(=O)n1-c1ccc(OC)cc1 | 0.7
COc1ccc(CCn2c(NCc3ccco3)nc3c2c(=O)[nH]c(=O)n3C)cc1 | 0.0
COc1ccc(CCNC(=O)C2CCCN(S(=O)(=O)c3cnc[nH]3)C2)cc1OC (stereo unspecified) | 0.4
COc1ccc(C(=O)NCc2oc(-c3ccccc3)cc2C(=O)O)cc1 | 0.5
CC1CCc2cc(F)ccc2N1C(=O)CCC(=O)O (stereo unspecified) | i
N#Cc1ccc(-c2ccc(F)cc2)nc1Oc1ccccc1 | i
COc1ccc(OCCCC(=O)NCC(C)C)cc1 | 0.7
COc1cc(/C=c2\sc3n(c2=O)C(c2ccccc2)C(c2ccccc2)=NN=3)ccc1O (stereo unspecified) | i
COc1ccc(-c2noc(CSc3nc(-c4ccccc4)cc(=O)[nH]3)n2)cc1OC | 0.2
CCCSc1nc2c(c(=O)[nH]c(=O)n2C)n1CCc1ccccc1 | i
O=C(N1CCN(c2ccccc2F)CC1)C12CC3CC(CC(C3)C1)C2 | 4.8

Looked up one by one from above:
SMILES | H5N1 antiviral
CC1CCN(C(=O)CN(c2ccc(Oc3ccccc3)cc2)S(C)(=O)=O)CC1 | 0.6
CCOC(=O)N1CCN(CCC(=O)Nc2ccc(C)c(Br)c2)CC1 | i
COc1ccc(CCn2c(NCc3ccco3)nc3c2c(=O)[nH]c(=O)n3C)cc1 | 0.0
O=C(N1CCN(c2ccccc2F)CC1)C12CC3CC(CC(C3)C1)C2 | 4.8

(more compounds)
SMILES | H5N1 antiviral
Cc1ccc(-n2nc(C(=O)NCc3ccc(C)o3)c3c4ccccc4n(C)c3c2=O)cc1 | 0.1
CN(C)S(=O)(=O)N1CCN(c2cc(Cl)ccc2Cl)CC1 | 1.1
COc1ccc(/C=C/C(=O)NC(=S)NNC(=O)Cc2cccs2)cc1OC | i
CCC(C)NC(=O)CNC(=O)Cn1c(C)cc2ccccc2c1=O (stereo unspecified) | 1.2
O=C1C2C3c4ccccc4C(c4ccccc43)C2C(=O)N1c1cccc2cccnc12 (stereo unspecified) | i
CCCOc1ccc(C2/C(=C(\O)c3c(C)[nH]c(C(=O)OC)c3C)C(=O)C(=O)N2CCN(C)C)cc1 (stereo unspecified) | i
CN1CCN(C(=O)c2ccc3c(c2)NC(=O)C(N2CCOCC2)S3)CC1 (stereo unspecified) | i
CCOC(=O)CC(=O)CSc1nnc(Cn2c(=O)sc3ccccc32)n1C | i
Cc1noc(C)c1CSc1nnc(-c2ccccc2F)n1CCc1ccccc1 | 1.3
Cc1ccc(C)c(N(C)C(=O)c2coc(=O)c3ccccc23)c1 | 0.5
Cc1cccc(-c2noc(-c3ccc(F)cc3)n2)c1 | 0.2
c1ccc(Cn2nnnc2-c2ccco2)cc1 | 0.5
O=C(C1CCCN(S(=O)(=O)c2ccc(Br)s2)C1)N1CCCCCC1 (stereo unspecified) | 1.7
CCCn1c(CCNC(=O)c2cccs2)nc2ccccc21 | 1.1
O=C(Cn1nnc2c(cnn2-c2ccccc2)c1=O)NCc1cccs1 | 0.7
C=CCn1c(CNC(=O)c2cccs2)nnc1SCC(=O)c1ccc(Br)cc1 | i
Cc1occc1-c1nnc(SCC(=O)Nc2nc(-c3ccccc3)cs2)o1 | i
COc1ncnc2c1oc1nc(CC(C)C)c3c(c12)CCCC3 | 1.6
CCCc1[nH]nc2c1C(c1ccc(O)c(OC)c1)C(C#N)=C(N)O2 (stereo unspecified) | i
CCC(C)(C)n1nnnc1C(C(C)C)N(Cc1ccco1)Cc1cc2cc3c(cc2[nH]c1=O)OCO3 (stereo unspecified) | i
CCOC(=O)c1ccc(COc2nc3ccccc3nc2-c2ccccc2NC(C)=O)o1 | 0.7
Cc1cccc(C2=N/C(=C\c3cccnc3)C(=O)O2)c1 | 1.3
COCCNC(=O)C(c1ccccc1C)N(CCOC)C(=O)Cn1nnc2ccccc21 (stereo unspecified) | 1.0
CCN1C(=O)c2ccccc2S(=O)c2ccc(C(=O)NCCCN3CCCC3=O)cc21 (stereo unspecified) | 0.8
Cc1cccc(NC(=O)Nc2nnc(N3CCCCC3C)s2)c1C (stereo unspecified) | i
(cont.)
SMILES | H5N1 antiviral
COc1ccc(OCC(=O)Nc2cc(OC)cc(OC)c2)cc1 | i
CC(C)P(=O)(Cc1cccc(C#N)c1)C(C)C | i
O=C(Nn1c(-c2ccc(F)cc2)nc2ccccc2c1=O)C1CCCCC1 | i
COc1cc(-c2nnc3sc(-c4ccco4)nn23)cc(OC)c1OC | 2.1
CN(C)S(=O)(=O)N(CC(=O)NCc1ccccc1)c1ccccc1 | 0.5
C=CCC1CCCCC12NC(=O)NC2=O (stereo unspecified) | 0.2
COCC(COCCCNC(=O)Nc1ccc(Br)cc1)OC (stereo unspecified) | i
Cc1cccc(C(=O)NNC(=O)c2ccc(-c3ccccc3)cc2)c1 | i
c1ccc2c(c1)nc(NC1CCCCC1)c1nncn12 | 6.5
O=C(Nc1ccc(S(=O)(=O)N2CCOCC2)cc1)C1CCCCC1 | 0.5
COc1ccccc1N1CCN(CCCNC(=O)Nc2ccccc2)CC1 | i
CN1CCN(S(=O)(=O)c2ccc(NC(=O)c3ccco3)cc2)CC1 | 1.5
Cc1cc(C)cc(-c2nc(-c3ccncc3)no2)c1 | i
COC(=O)[C@H](C)NC(=O)Nc1ccc(S(N)(=O)=O)cc1 | i
COc1ccc(OCC(=O)N2CCN(C(=O)c3ccco3)CC2)cc1 | 0.0
CSc1nc(N2CCOCC2)c2c(c1C#N)CC(C)(C)OC2 | 1.6
COc1ccccc1NC(=O)CSc1nc(O)cc(=O)[nH]1 | 0.1
CCCn1c(SCC(=O)Nc2nc(C)c(C(=O)OC)s2)nnc1C(C)C | 0.4
COc1ccc(-c2c3c(=O)n(C)c(=O)n(C)c3cn2-c2cc(OC)ccc2OC)cc1 | 1.3
COC(=O)C(C)(C(=O)OC)c1ccc([N+](=O)[O-])cn1 | 0.0
CCN(CC)S(=O)(=O)c1ccc(C)c(NC(=O)COC(=O)c2ccc(C)c(S(=O)(=O)N3CCOCC3)c2)c1 | 1.1
COc1ccc(C(=O)c2c[nH]c(C(=O)NCc3cccnc3)c2)cc1 | i
Clc1ccc(CNc2nc(N3CCOCC3)nc(N3CCOCC3)n2)cc1 | i
CCCCc1cc(=O)oc2cc(OCc3nn[nH]n3)c(Cl)cc12 | i
CCn1cc(C(=O)NCC2CCCO2)c2cc(OC)c(OC)cc2c1=O (stereo unspecified) | i
Further results
SMILES | H5N1 antiviral
CCOc1ccc(NC(=O)CC2C(=O)N(c3ccccc3)C(=S)N2Cc2ccccn2)cc1 (stereo unspecified) | i
CCCCn1c(SCC(=O)Nc2nnc(C)s2)nc2c1c(=O)n(C)c(=O)n2C | 0.1
O=P1(NC2CCCC2)COc2ccccc2OC1 | 0.1
Cn1c(CNC(=O)Cc2ccc3c(c2)OCO3)nnc1SCc1ccccc1 | 0.3
O=C(Cn1ncc2c3ccccc3n(Cc3ccccc3F)c2c1=O)N1CCC2(CC1)OCCO2 | 0.7
N#Cc1c(NC(=O)c2nc3ncccn3n2)sc2c1CCCCC2 | 0.5
O=C(N/C=N/O)C1=NOC(CNc2ncc(C(F)(F)F)cc2Cl)C1 (stereo unspecified) | 1.6
Cc1cccc(C(=O)Nc2c(C#N)c(C)c(C)n2Cc2ccccc2)c1 | i
CN(C)CCCn1c(-c2ccccc2)nc(=S)c2c1CCCC2 | 0.1
CC1(C)CN=C(NCc2ccccc2Cl)S1 | i
CCOC(=O)c1c(NC(=O)COC(=O)Cn2cnc3ccccc32)sc(C)c1C | 0.6
CCOC(=O)C1=C(c2ccccc2)Nc2c(c(=O)n(C)c(=O)n2C)C1c1ccc(O)c(OC)c1 (stereo unspecified) | 1.4
Cc1ccc(N2C(N)=NC(N)=NC2(C)C)c(C)c1 | i
O=C(CSc1nnc(-c2cccc(S(=O)(=O)N3CCOCC3)c2)n1C1CCCCCC1)NCc1ccccc1 | 2.3
CN(C)CCSc1nc(N)c2c3c(sc2n1)CN(C)CC3 | 5.9
CCOC(=O)C(C)Sc1nc(C2CC2)cc(C(F)(F)F)c1C#N (stereo unspecified) | 1.1
CC1CCN(C(=O)CCNS(=O)(=O)c2ccccc2)CC1 | i
CC(=O)C1=C(c2ccccc2)NC(=O)NC1c1ccccc1OCC(=O)NCc1ccccc1 (stereo unspecified) | i
CCn1cc(C(=O)NCCCN2CC(C)CC(C)C2)c2cc(OC)c(OC)cc2c1=O (stereo unspecified) | 1.6
CCN(CC)CCOc1ccc(Br)cc1 | i
COc1ccc(NC(=O)c2c(NC(=O)CNCc3ccco3)sc3c2CCC3)cc1 | i
CC(=O)Nc1ccc(NC(=O)c2ccccc2CC[N+](=O)[O-])cc1 | 0.2
CN1CCC(OC(=O)C2c3ccccc3Oc3ccccc32)CC1 | i
CCn1cc(C(=O)NCCCN(C)c2ccccc2)c(=O)c2cc(S(=O)(=O)N(C)C)ccc21 | i
CC1CN(C(=O)c2ccc3c(c2)OCO3)OC(c2ccccc2)O1 (stereo unspecified) | 0.2
Cc1nc(-c2c(-c3ccc(O)cc3O)noc2C(F)(F)F)cs1 | i
S=C(Nc1ccccc1)c1ccccn1 | 0.5

Among those listed so far, these have a CF3 group.
SMILES | H5N1 antiviral
CCN=C1SC(CC(=O)Nc2ccc(C(F)(F)F)cc2)C(=O)N1CC (stereo unspecified) | i
O=C(N/C=N/O)C1=NOC(CNc2ncc(C(F)(F)F)cc2Cl)C1 (stereo unspecified) | 1.6
CCOC(=O)C(C)Sc1nc(C2CC2)cc(C(F)(F)F)c1C#N (stereo unspecified) | 1.1
Cc1nc(-c2c(-c3ccc(O)cc3O)noc2C(F)(F)F)cs1 | i

An excerpt. The share of hits here may be higher or lower than overall.
